Env fusion inh = blocks HIV Env-driven cell-cell fusion | HeLa-JRFL Env/CEM21 cell fusion, luciferase | inhibition, % at 12.3 µM | actives 1.1% (n = 360,000);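 active means mean replicate inhibition score of at least 50 and every replicate individually at or above 50; inconclusive means only one of the two criteria met; inactive means mean below 50 and not all replicates reaching 50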;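 further: 0% = plate neutral controls and 100% = maraviroc near 300 nM; one replicate is shown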
CSC inhib = blocks cancer stem cells; cancer stem cell-like cells viability, luminescence; inhibition, % at 7.5 µM; actives 1.1% (n = 300,000); AID 2717;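 active means mean at 75% or more and at least half the replicates too; inconclusive means mean and replicates disagree; tested in HMLE shEcad cells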;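 further: 0% = median of negative and 100% = median of positive control wells; the first replicate is given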
PABP polyA inh = blocks human PABP binding to poly(A) RNA; fluorescence polarization; P11940; inhibition, % at 35 µM; actives 1% (n = 290,000);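 active means 50% or more with normal probe brightness, or confirmed in later tests; inconclusive means above 50% with abnormal brightness, or retests that disagree; inactive means below 50% or failed in later tests; about a fifth of its hits are not listed in these tables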;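 further: calls also rest on retests at 20 µM and on dose response follow-up; controls were probe without protein and protein plus probe with vehicle; some compounds called inactive have numbers as strong as hits; many hits fall short of the cut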
Target sequence (P11940 whole entry, looked up): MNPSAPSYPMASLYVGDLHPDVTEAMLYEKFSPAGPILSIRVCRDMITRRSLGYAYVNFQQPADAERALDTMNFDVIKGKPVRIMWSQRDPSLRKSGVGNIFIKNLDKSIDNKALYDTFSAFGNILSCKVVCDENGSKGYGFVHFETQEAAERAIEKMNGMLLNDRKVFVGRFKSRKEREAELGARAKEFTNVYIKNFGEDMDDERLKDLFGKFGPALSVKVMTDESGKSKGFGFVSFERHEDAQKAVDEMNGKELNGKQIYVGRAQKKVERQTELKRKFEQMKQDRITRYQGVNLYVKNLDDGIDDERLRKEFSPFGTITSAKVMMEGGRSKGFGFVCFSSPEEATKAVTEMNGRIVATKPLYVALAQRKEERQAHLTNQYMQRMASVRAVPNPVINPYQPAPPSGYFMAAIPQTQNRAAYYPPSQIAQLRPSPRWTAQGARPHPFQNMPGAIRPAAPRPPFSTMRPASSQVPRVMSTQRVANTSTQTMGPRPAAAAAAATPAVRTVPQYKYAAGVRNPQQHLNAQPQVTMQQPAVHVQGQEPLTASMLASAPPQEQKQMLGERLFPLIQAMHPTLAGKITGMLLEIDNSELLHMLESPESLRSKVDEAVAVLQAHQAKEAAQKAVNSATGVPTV
MT1-MMP act inh = blocks activation of human MT1-MMP; actives 0.061% (n = 360,000); AID 651647; GFP/RFP ratio change, % at 20 µM; P50281; HT1080 RFP-PRO-GFP cells, GFP/RFP ratio fluorescence, overnight; percent of plate control window, DMSO zero;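 active means GFP/RFP ratio change of at least 30% with cell ATP level not reduced by more than half and red fluorescence within 50% of control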; further: strong numbers were not always called active
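Assay system – RFP-PRO-GFP reporter HT1080 cells · Compound dosing – single dose of 20 µM compound, 1% DMSO final · Incubation – overnight compound exposure at 37 °C · Measure – GFP/RFP fluorescence ratio · Benchmarks – DMSO wells and RFP-L50D-GFP cells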
eIF4H inh = inhibitors of RNA binding by human eIF4H | Q15056 | eIF4H fluorescence polarization binding assay | inhibition, % at 35 µM | actives 0.94% (n = 290,000) | AID 2012;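 active means 50% or more with normal probe brightness, or confirmed in later tests; inconclusive means above 50% with abnormal brightness, or retests that disagree; inactive means below 50% or failed in later tests; about a fifth of its hits are not listed in these tables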;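 further: calls also rest on retests at 20 µM and on dose response follow-up; 0% = protein and probe with vehicle and 100% = probe without protein; strong numbers were not always called active; many hits fall short of the cut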
Rce1 inhib = blocks yeast Ras-converting enzyme. Q03530. yeast membranes, quenched prenylated peptide cleavage fluorescence. calls only. actives 0.27% (n = 290,000);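 active means fall in fluorescence gain of 50% or more versus controls, with final raw signal at or below 3038400; inconclusive means same 50% fall but final raw signal above 3038400; inactive means fall in fluorescence gain under 50%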;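 further: plate controls were neutral control wells for no effect and wells lacking membranes for full effect; tested at 10 µM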
UUG fidelity = alters start codon recognition fidelity in yeast; S. cerevisiae UUG-firefly luciferase reporter, luminescence/redox ratio; activity score, % at 18.7 µM; actives 0.13% (n = 350,000); AID 602363;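 active means replicate mean at a twofold rise or more, about +100% in these data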;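 further: firefly luciferase made from a UUG start codon reports start codon fidelity; reporter light over untreated wells divided by growth signal over untreated wells; some hits fall short of that in this replicate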
eIF4H inh retest = also measured in eIF4H inh; calls as there; inhibition, %; compound at 20 µM; confirmation average;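 mean of two retest wells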
PABP polyA inh retest = second read-out of PABP polyA inh, no call of its own (marks repeat the call); inhibition, %; compound at 20 µM; confirmation repeats;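 mean of two retest wells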
MT1-MMP act inh RFP = also measured in MT1-MMP act inh; calls as there; RFP signal change, %; measured here: RFP expression control read;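 0 = vehicle wells; hits needed this value within 50% of zero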
Numbers without * were called inactive; i = inactive; ? = inconclusive; · = not tested or not shown. Only part of the results is shown, so the mix of outcomes need not match the whole.

SMILES	Env fusion inh	CSC inhib	PABP polyA inh	MT1-MMP act inh	MT1-MMP act inh RFP	eIF4H inh	Rce1 inhib	UUG fidelity	others
CSc1ccccc1C(=O)OCC(=O)NCCN1C(=O)CSC1=O	·	-13	·	-2	1	·	·	-2
O=C(Nc1cccc(-c2nc3ncccc3o2)c1)c1ccc2c(c1)OCO2	-3	·	·	-4	-3	·	·	-14
O=C(COC(=O)CCSc1ccc(Cl)cc1)NCc1ccccc1Cl	1	-1	-6	2	2	-3	i	·
CC1CCCN(c2nc3c(c(=O)[nH]c(=O)n3C)n2Cc2ccccc2Cl)C1 (stereo not drawn)	1	-2	-1	0	-7	5	i	-13
C=CC1CN(C(=O)OCC(Cl)(Cl)Cl)C2CC3c4ccc(OC)cc4NC3C3CC1C2CO3 (stereo not drawn)	·	33	·	8	1	·	i	0
CCOc1ccc(CN2CCNC(=O)C2CC(=O)NC2CCOCC2)cc1 (stereo not drawn)	-1	-4	-3	0	2	-7	i	7
COc1ccc(N2CCN(S(=O)(=O)CCNC(=O)C3CC(=O)N(c4ccccc4)C3)CC2)cc1 (stereo not drawn)	-3	-9	5	-1	-6	-4	i	-7
Cc1cc(NC(=O)CC(C)(C)C)nc2c1c(=O)oc1ccccc12	·	·	-4	-4	-1	10	i	-15
O=C(O)c1ccc(Oc2ccccc2)o1	-20	-1	2	-2	2	-7	i	·
Cc1ccc(NC(=O)CN2CCN(CCN=CC3=C(O)CC(C)(C)CC3=O)CC2)cc1	·	·	-11	-5	-4	-1	i	·
CCC(=O)Nc1nc(C)c(C(=O)N2CCCCC2)s1	·	16	11	-1	1	-1	i	-2
O=C(c1ccc(OC2CCN(Cc3cccc(F)c3)CC2)cc1)N1CCCCC1	·	8	-8	2	1	0	i	-9
Cc1nc(NCCc2ccccc2)sc1C(=O)N(C)C	-11	-11	5	1	1	-17	i	-20
Cc1ccc(NC(=O)CSc2ccc(-c3ccccn3)nn2)cc1F	-27	-4	-16	3	0	-4	i	-9
CC1(C)OC(=O)N(c2cccnc2)C1(C)O (stereo not drawn)	·	-7	3	5	2	13	i	-6
O=C(/C=C/Sc1ncn[nH]1)c1ccc(Cl)cc1	·	112*	42	21	12	61*	i	-28	eIF4H inh retest=66*;PABP polyA inh retest=8
Cc1onc(-c2c(Cl)cccc2Cl)c1C(=O)N=C(N)N1CC(C)OC(C)C1 (stereo not drawn)	-7	-6	-6	3	-1	-7	i	12
CC(=O)C1=C(O)C(=O)N(c2ccc(C(=O)O)cc2)C1c1ccc([N+](=O)[O-])cc1 (stereo not drawn)	3	-10	14	-3	-1	5	i	-15
C=CCn1cccc(C(=O)Nc2ccc(OC)c(Cl)c2)c1=O	·	-15	3	2	-3	-1	i	-12
C=CCn1c(SCC(=O)NC(=O)Cc2ccccc2)nnc1-c1ccccc1F	4	-14	·	-3	0	·	·	-19
CN(C)c1cc(-c2cccc([N+](=O)[O-])c2)oc(=O)c1Cl	-6	-3	-4	1	1	0	i	·
Cc1ccc(NC(=O)CN2CCC3(O)CCCCC3C2c2ccc3c(c2)OCO3)c(C)c1 (stereo not drawn)	-1	-9	-1	-5	-6	8	i	-3
CCOc1ccc(S(=O)(=O)N2CCC(C(=O)Nc3ccc(C)c(S(=O)(=O)N4CCOCC4)c3)CC2)cc1	11	·	·	-1	-14	·	·	0
O=C(CCC(=O)c1ccc(F)cc1)Nc1cccc(Br)c1	11	14	3	-1	2	-4	i	-13
Cc1noc(C)c1C(=O)OC(C)C(=O)c1ccc(C(C)(C)C)cc1 (stereo not drawn)	-74	·	·	2	1	·	·	-7
(continued)
SMILES	Env fusion inh	CSC inhib	PABP polyA inh	MT1-MMP act inh	MT1-MMP act inh RFP	eIF4H inh	Rce1 inhib	UUG fidelity	others
COCC(C)OC(=O)c1c(N)n(-c2ccc(OC)c(OC)c2)c2nc3ccccc3nc12 (stereo not drawn)	·	-13	12	·	·	4	i	·
CC[C@@]1(C(=O)OC)N[C@H](CN(C)S(=O)(=O)c2ccc(F)cc2)[C@@H]2C(=O)N(C)C(=O)[C@@H]21	-58	·	·	1	6	·	·	-4
O=C(Cn1nc(-c2ccccc2)c2ccccc2c1=O)Nc1ccc(O)cc1	-6	12	-6	2	3	-3	i	-10
Cc1ccc(CN2C(=O)CCC2C(=O)NCc2ccccc2Cl)cc1 (stereo not drawn)	-2	-6	48	0	1	1	i	·
Cc1ccc(-c2nc3c4ccccc4ccn3c2CN2CCCCC2)cc1	-9	·	13	-3	0	0	i	-17
COc1ccc(S(=O)(=O)N2CCOCC2)cc1C(=O)N1CCCC1	-9	-17	-7	-3	3	-12	i	-8
Cc1c(C(=O)NCc2ccccn2)sc2nc(-c3ccc(F)cc3)cn12	-86	55	-4	9	-5	-6	i	-11
COc1cccc(NS(=O)(=O)c2c(C)n(C)c(=O)n(C)c2=O)c1	-12	-9	7	7	11	12	i	-15
Nc1ccccc1SCC(=O)Nc1cccc2ccccc12	9	7	-7	-1	2	-3	i	-28
COc1ccccc1C(=O)Nc1ccnn1C1CCN(Cc2csc(C(C)=O)c2)CC1	-13	-15	-5	0	0	-6	i	-43
COCCn1c(NCc2ccc(C)cc2)nc2c1c(=O)[nH]c(=O)n2C	·	-18	-4	-5	-2	-2	i	3
COc1ccc(O)c(-c2[nH]ncc2C(=O)c2cccc(C)c2)c1	14	0	2	-9	-1	6	i	-12
CCOc1ccc(C(=O)CCC(=O)NNC(=O)c2ccccc2O)cc1	7	22	·	0	4	·	·	·
Cc1cc(C(=O)Nc2ccc(S(=O)(=O)N3CCOCC3)cc2)c(C)o1	-5	-20	1	0	-4	0	i	-3
Nc1cccc(-c2cc3ccccc3oc2=O)c1	-23	-10	-2	3	-5	0	i	-16
COC(=O)[C@H](C)NC(=O)NCc1ccc(F)cc1	·	1	-1	-2	2	9	i	-12
O=C(Nc1ccccc1F)c1ccc(CSc2ncccn2)cc1	-53	0	-12	-3	-1	-2	i	-17
COc1ccc(CC(=O)Nc2c3c(nn2-c2cccc(Cl)c2)CS(=O)(=O)C3)cc1	-15	1	-6	2	-5	-5	i	-1
CN(C)S(=O)(=O)c1ccc(C(=O)Nc2nnc(SCc3cccc(F)c3)s2)cc1	-14	9	-4	1	-1	3	i	-16
COC(=O)[C@@H](NC(=O)Nc1ccc(OC)cc1)C(C)C	-60	2	4	-2	1	8	i	-8
O=C(N/N=C1\CCc2ccccc21)c1ccncc1	-31	-5	0	7	7	8	i	·
CCCCNC(=O)c1onc(CSc2ccc(OC)cc2)c1C(=O)O	6	2	9	1	3	-3	i	13
O=C(c1ccco1)N1CCN(C2CN(Cc3ccccc3)S(=O)(=O)C2)CC1 (stereo not drawn)	-115	·	·	-1	0	·	·	-2
COc1ccc(-n2nnnc2SC(C)C(N)=O)cc1 (stereo not drawn)	·	2	-5	0	2	-6	i	-24
CC1CCCCC1NC(=O)Cn1cnc2c1c(=O)n(C)c(=O)n2C (stereo not drawn)	·	-15	·	0	2	·	·	-3

An excerpt from above in order of length of the SMILES, ascending.
SMILES	Env fusion inh	CSC inhib	PABP polyA inh	MT1-MMP act inh	MT1-MMP act inh RFP	eIF4H inh	Rce1 inhib	UUG fidelity	others
O=C(N/N=C1\CCc2ccccc21)c1ccncc1	-31	-5	0	7	7	8	i	·
CC1CCCCC1NC(=O)Cn1cnc2c1c(=O)n(C)c(=O)n2C (stereo not drawn)	·	-15	·	0	2	·	·	-3
COc1ccc(CC(=O)Nc2c3c(nn2-c2cccc(Cl)c2)CS(=O)(=O)C3)cc1	-15	1	-6	2	-5	-5	i	-1

Next entries
SMILES	Env fusion inh	CSC inhib	PABP polyA inh	MT1-MMP act inh	MT1-MMP act inh RFP	eIF4H inh	Rce1 inhib	UUG fidelity	others
Cc1ccc2occ(/C=N/NC(=O)c3ccc(O)cc3)c(=O)c2c1	44	-6	-5	-9	0	-12	i	-8
Cc1cc(CN(C)C(=O)c2ccc3nc(Cc4ccccc4F)oc3c2)on1	-95	22	0	4	2	-12	i	-11
COc1ccccc1NC(=O)CC(c1ccc(F)cc1)c1ccco1 (stereo not drawn)	-1	6	5	-1	1	-2	i	·
CCOC(=O)C1=CCC(c2ccccc2Cl)N(S(=O)(=O)c2ccc(C)cc2)C1 (stereo not drawn)	-31	·	·	-5	-5	·	·	0
CNc1oc(-c2ccc(OCc3ccccc3)cc2)nc1C#N	·	64	-7	4	-4	-5	i	·
O=c1[nH]c(CSc2ncc(C(F)(F)F)cc2Cl)nc2ccccc12	-3	5	0	-3	-3	-7	i	5
O=C(COC(=O)Cc1ccsc1)NCC12CC3CC(CC(C3)C1)C2	-69	-14	-6	2	4	-1	i	-7
N#Cc1c(NCCCO)nc(-c2ccco2)c2c1CCCC2	·	-2	26	-3	5	5	?	-6
CCN(CC)CCn1c(NS(=O)(=O)c2ccc(C)cc2)nc2ccccc21	-2	0	·	0	-2	·	·	-4
C/C(=N\NC(=S)NC(C)C)c1ccc(Cl)c([N+](=O)[O-])c1	6	5	-4	-1	-1	-9	i	·
CCOC(=O)Cc1cc(-c2ccc(OC)cc2)nc2ccc3ccccc3c12	-3	43	-19	0	0	-4	i	·
CNC(=S)Nc1cc(OC)ccc1OC	·	-16	0	8	2	10	i	-1
O=C(c1ccc2c(=O)n(Cc3ccco3)c(=S)[nH]c2c1)N1CCN(Cc2ccccc2)CC1	-35	10	10	-2	2	1	i	-8
Cc1nc(N2CCOCC2)nc(N2CCCCC2)c1[N+](=O)[O-]	-12	6	-9	3	-1	-3	i	·
COc1ccc(C2CCCN2C(=S)Nc2ccc(C)c(C)c2)cc1OC (stereo not drawn)	-10	-7	-21	-14	-6	3	i	-23
CC(C)c1cc(C(=O)NNC(=S)NCc2ccco2)c(O)c(C(C)C)c1	2	-5	-17	-13	-8	-4	i	-34
COc1ccc(CNc2oc(COc3ccc(Cl)cc3)nc2C#N)cc1	?	·	18	-1	-7	-4	i	1
COc1cccc(C(NC(C)=O)c2nc(-c3ccc(OC)nc3)cs2)c1 (stereo not drawn)	-18	·	·	1	-6	·	·	-10
COc1ccc(CCN(C(=O)c2snc(C(N)=O)c2N)C(C(=O)NCC2CCCO2)c2ccc(F)cc2)cc1OC (stereo not drawn)	-50	·	4	3	-1	-10	i	-2
CN1OC[C@@H]2CN(S(=O)(=O)c3cccc(C(F)(F)F)c3)[C@H](c3ccc(N4CCCCC4)cc3)C[C@@H]21	-3	·	·	0	0	·	·	-8
CN(Cc1ccccc1F)c1ncnc2sccc12	11	-9	5	-2	-17	-17	·	-13
O=C(CSc1nc2ccccc2c(=O)[nH]1)Nc1nc(-c2ccc(Br)cc2)cs1	15	2	24	-7	-5	25	i	-4
Cc1noc(C(=O)NCc2ccco2)c1Cl	5	-10	-2	-1	3	-2	i	-10
Cc1ccc(-n2c(-c3ccccc3)nnc2-c2cccs2)cc1	0	·	-8	-5	0	-6	i	-21
Cc1ccc(S(=O)(=O)CCc2nnc(NC(=O)C3CCCO3)s2)cc1 (stereo not drawn)	·	-7	4	-3	1	-6	i	-13
O=C1CC(NNc2ccccc2)C(=O)N1c1cccc(Cl)c1 (stereo not drawn)	·	27	-2	-5	0	-2	i	3
Cc1ccc(-c2n[nH]c(=S)n2C)cc1Cl	39	·	-9	11	1	6	i	-18
CNC(=O)C(=O)NCC1OCCN1S(=O)(=O)c1ccc([N+](=O)[O-])cc1 (stereo not drawn)	-23	-1	-10	-2	1	3	i	1
CCc1ccccc1NC(=O)CSc1nnc(CNC(=O)c2ccco2)n1C	-2	4	-1	-1	1	-5	i	-5
